# High-throughput results from PubChem.
# D2 PAM: Beta-Arrestin HTS for Positive Allosteric Modulators of the Human D2 Dopamine Receptor: Potentiators | D(2) dopamine receptor (Homo sapiens), P14416 | DiscoveRx D2 beta-arrestin cells, luminescence, 90 min; 100% = 57 uM dopamine signal | potentiation, % (no concentration beside the values) | hit rate 0.23% among 360,000; active = potentiation of 50% or more; inconclusive = 30% to 50%; inactive = 30% or less;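 further: compound concentration not given in the record; tested on top of an EC20 dose of dopamine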
# Target sequence (P14416 whole entry, looked up): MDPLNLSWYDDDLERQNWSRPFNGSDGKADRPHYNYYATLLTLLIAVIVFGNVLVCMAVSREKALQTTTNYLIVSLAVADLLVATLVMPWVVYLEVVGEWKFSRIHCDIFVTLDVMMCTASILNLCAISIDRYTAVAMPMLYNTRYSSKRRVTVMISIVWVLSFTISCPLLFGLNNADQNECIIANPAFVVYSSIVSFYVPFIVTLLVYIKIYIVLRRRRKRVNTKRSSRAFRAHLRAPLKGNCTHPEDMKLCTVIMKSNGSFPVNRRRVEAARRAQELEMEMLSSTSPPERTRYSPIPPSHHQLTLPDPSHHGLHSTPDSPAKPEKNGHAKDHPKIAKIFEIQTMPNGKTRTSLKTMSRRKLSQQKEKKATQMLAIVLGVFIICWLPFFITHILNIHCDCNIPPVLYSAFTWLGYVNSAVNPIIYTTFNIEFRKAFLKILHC
#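 D2 cells co-treated with compound plus 50 nM dopamine (EC20) for 90 min at 37 deg C to detect potentiation. Beta-arrestin recruitment was read as enzyme-fragment luminescence after 1 h at ambient temperature. Full response was set by 57 uM dopamine.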
# Six1-Eya2 blk: qHTS Assay for Inhibitors of the Six1/Eya2 Interaction | Homeobox protein SIX1 (Homo sapiens) + Protein phosphatase EYA2 (Homo sapiens), … | AlphaScreen GST-Six1/His-Eya2 binding, biochemical; hits give low values; control for the full effect not named in the record | activity change, % (test concentration not listed) | hit rate 0.56% among 360,000; in the data active = activity change below about -65%; inconclusive = about -30% to -65%; inactive = above about -30%; further: on the % scale 0 is the no-effect control and ±100 the full control effect; compound concentration not given in the record
#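 AlphaScreen luminescence read after one hour at 37 °C in darkness. Pin-transferred compounds met GST-Six1 and His-Eya2 protein (5X stock 250 nM/500 nM) plus glutathione donor and Ni-chelate acceptor beads (5X, 50 ug/mL).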
# TRPML1 inh: qHTS for Inhibitors of the Human Mucolipin Transient Receptor Potential 1 (TRPML1); Mucolipin-1 (Homo sapiens), Q9GZU1; TRPML1-inducible cells, Ca2+ dye fluorescence, FDSS; hits give low values; inhibition of EC80 agonist-evoked calcium signal; activity change, negative = inhibition, % (test concentration not listed); hit rate 0.02% among 390,000; AID 624415, 2012; in the data active means activity change below about -50%; inconclusive means about -30% to -50%; inactive means above about -30%;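 further: stimulus is agonist 54-4 at its EC80 concentration; on the % scale 0 is the no-effect control and ±100 the full control effect; compound concentration not given in the record; the text of the record puts the active cut at -80%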
# Target sequence (Q9GZU1 whole entry, looked up): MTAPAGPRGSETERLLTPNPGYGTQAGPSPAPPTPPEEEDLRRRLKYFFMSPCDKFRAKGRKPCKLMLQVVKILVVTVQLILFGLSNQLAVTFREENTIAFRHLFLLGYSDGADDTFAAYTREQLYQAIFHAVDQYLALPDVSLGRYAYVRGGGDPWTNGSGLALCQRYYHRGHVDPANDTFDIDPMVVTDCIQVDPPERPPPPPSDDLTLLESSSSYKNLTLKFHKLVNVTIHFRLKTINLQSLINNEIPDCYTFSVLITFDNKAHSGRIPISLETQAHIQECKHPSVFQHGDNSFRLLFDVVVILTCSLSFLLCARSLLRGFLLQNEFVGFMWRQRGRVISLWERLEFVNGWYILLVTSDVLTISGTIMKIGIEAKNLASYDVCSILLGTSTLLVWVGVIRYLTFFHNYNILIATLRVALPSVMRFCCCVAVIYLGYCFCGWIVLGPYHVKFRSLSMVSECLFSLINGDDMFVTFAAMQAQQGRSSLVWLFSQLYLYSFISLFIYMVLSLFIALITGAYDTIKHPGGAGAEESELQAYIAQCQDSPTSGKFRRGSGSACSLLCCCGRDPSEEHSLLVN
#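 TRPML1-DL cells, Tet-induced overnight (~16 h, 37 °C) at 1,500 cells/well, were loaded with Ca8 no-wash dye plus quencher for 45-90 min at room temperature. Compounds were pinned during FDSS kinetic reading; agonist 54-4 at EC80 (4 uM final) then added.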
# TRPV1 PAM: HTS Assay for Compounds that Act as Potentiators of the Vanilloid Receptor 1 | hit rate 0.02% among 320,000 | potentiation, % at 8.33 µM | AID 540277, 2011 | Transient receptor potential cation channel subfamily V member 1 (Homo sapiens), Q8NER1 | TRPV1-expressing cells, Fluo-8 calcium influx, capsaicin EC20 potentiation; host cell line not named in the record; control for the full effect not named in the record; active means potentiation above 80%; inconclusive means 30% to 80%; inactive means below 30%; further: 0% is about no effect
#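 Cells expressing TRPV1 were dye-loaded with Fluo-8 and read kinetically: 10 s baseline, 3 min after compound (agonist portion), then 2 min after EC20 capsaicin (allosteric enhancer portion). Calcium-bound dye fluorescence at 480/520 nm.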
# CtBP-E1A inh: qHTS Assay for Inhibitors of the CtBP/E1A Interaction | hit rate 0.49% among 340,000 | AlphaScreen GST-E1A/His-CtBP binding, 1536-well; hits give low values; control for the full effect not named in the record | activity change, % (test concentration not listed) | CtBP / adenovirus E1A interaction (AlphaScreen); in the data active means activity change below about -65%; inconclusive means about -30% to -65%; inactive means above about -30%; further: on the % scale 0 is the no-effect control and ±100 the full control effect; compound concentration not given in the record
#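 Protein mix (5X: 125 nM each GST-E1A, His-CtBP) was incubated with pinned compound 2 h at 37 deg C in dark, in 50 mM Tris pH 8.0 buffer with 300 mM NaCl. Glutathione donor and nickel acceptor beads followed; AlphaScreen signal read after 1 h.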
# TRPML1 agonist: qHTS for Agonists of the Human Mucolipin Transient Receptor Potential 1 (TRPML1); Mucolipin-1 (Homo sapiens), Q9GZU1; hit rate 0.12% among 410,000; AID 624414, 2012; TRPML1-expressing cells, Ca2+ dye fluorescence, FDSS; host cell line not named in the record; reference of the full effect not given here; activation, % (test concentration not listed); in the data active = activation above about 50%; inconclusive = about 30% to 50%; inactive = below about 30%; further: 0% is about no effect; the text of the record puts the active cut at 80%
#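 Agonist activity was taken from a 110 s kinetic Ca2+ dye read on the FDSS after pinning compounds onto TRPML1-DL cells. The cells were seeded at 1,500/well with Tet inducer, incubated about 16 h, then dye-loaded at room temperature.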
# Active calls of the source: *; ? = inconclusive; / = not tested or not shown.
no.	mol	Six1-Eya2 blk	TRPML1 agonist	CtBP-E1A inh	D2 PAM	TRPV1 PAM	TRPML1 inh
1	C#CCOCCOCCOCCNc1nc(N2CCN(C(=O)Cn3cc(CCCN=C(N)N)nn3)CC2)nc(N2CCN(C(=O)[C@H](C(C)C)n3cc(CCO)nn3)CC2)n1	0	-0.9	4	-24	4	1
2	CC(C)(O)C#Cc1ccc(C(=O)N2CCC(CCC(=O)NC3CC3)CC2)cc1	3	0.3	-1	-3	2	-16
3	O=C(CCCCCNC(=O)c1ccccc1)N/N=C/c1ccccc1O	-23	0.2	?	-13	-7	2
4	C=CC[C@H](CC(=O)N[C@H](CO)Cc1ccccc1)C(=O)N[C@@H](COC(=O)[C@@H](CC=C)Cc1ccc(F)cc1)Cc1c[nH]c2ccccc12	4	0.8	-4	-8	/	11
5	Cc1ccsc1C(=O)OCc1nc2ccccc2c(=O)[nH]1	18	1.0	34	-4	-40	7
6	CN(C)CCNC(C(=O)Nc1cccc(C(F)(F)F)c1)c1ccccc1 (configuration not stated)	1	-0.1	0	-13	6	6
7	Brc1cccc(-c2nnc(SCc3ccon3)n2-c2ccccc2)c1	-8	2.6	-1	-1	13	12
8	C=CCn1c(=O)c2ccc(C(=O)NCc3ccccc3)cc2n(Cc2ccc(C)cc2)c1=O	0	-0.4	3	-4	-2	-18
9	Cc1cc(C(C)(C)C)oc1C(=O)N(CC(=O)NC1CCCC1)c1ccc(F)cc1	-6	?	14	-18	-13	0
10	O=C(c1cc(COc2ccc(F)cc2Cl)on1)N1CCN(C2CCCC2)CC1	-9	-0.7	-18	-20	-14	5
11	C=CCn1c(SCC(=O)NC(N)=O)nnc1-c1cc2c(s1)CCC(CC)C2 (configuration not stated)	-10	1.6	-27	-3	-12	-13
12	COc1ccc(C(=O)OCc2ccccc2C#N)cc1S(=O)(=O)N1CCOCC1	-1	-0.1	1	-7	/	-2
13	CC(=O)Nc1cc(-c2ccc(CO)cc2)cn2c(-c3ccc(F)c(Cl)c3)cnc12	-7	-0.5	-7	-9	/	/
14	CSc1nnc(C)c(=O)n1COC(=O)COc1ccc(Cl)cc1	-4	-0.8	0	-1	3	15
15	Cc1ccc(N(CC(=O)Nc2cc(Cl)ccc2Oc2ccccc2)S(C)(=O)=O)c(C)c1	-6	0.7	0	-11	0	-11
16	Cc1cc(C)cc(NC(=O)C(=O)NCC2CCCN2S(=O)(=O)c2cccs2)c1 (configuration not stated)	-9	0.0	-23	2	-8	-10
17	COc1ccc(-c2cc(CNc3nc(NC(C)C)nc4cc(-c5ccccc5)sc34)on2)cc1	1	-0.6	-1	-6	/	/
18	COc1ccc(CNC(=O)[C@H](Cc2c[nH]c3ccccc23)NC(C)=O)cc1OC	-1	0.2	5	-4	10	-17
19	CN1CCN(c2ccc(CNC(=O)C3Cc4c(-c5ccc(Cl)cc5)ccnc4O3)cc2)CC1 (configuration not stated)	-7	0.1	-10	-20	/	84
20	Cc1c(Cl)c([N+](=O)[O-])nn1CC(=O)NC(C)C1CC2CCC1C2 (configuration not stated)	2	0.3	-2	-17	-3	3
21	COCCNC(=O)C(c1ccc(C)cc1)N(Cc1ccco1)C(=O)CCC(=O)Nc1ccccn1 (configuration not stated)	-3	-0.3	4	1	2	-12
22	COc1ccc(Cl)cc1S(=O)(=O)N1CCN(C)CC1	5	0.4	7	0	-1	-7
23	Cc1ccc2nc(SCC(=O)N3c4ccccc4CC3C)c(C)cc2c1 (configuration not stated)	13	2.1	8	-26	15	-22
24	CC(=O)Nc1cnn(Cc2ccc(Br)cc2)c1	5	-0.2	0	-13	6	-11
25	COc1ccccc1NC(=O)C(C)Nc1ccc(C)c(Cl)c1 (configuration not stated)	-15	2.7	-14	-4	8	30
26	Cc1ccc(S(=O)(=O)CCC(=O)OC(C)C(=O)c2c(C)[nH]c3ccccc23)cc1 (configuration not stated)	23	-0.2	0	-12	6	1
27	COC(=O)c1c(-c2ccc(SC)cc2)sc2ccc(OC)cc12	12	2.3	2	1	/	60
28	COC(=O)CC1=C(C(=O)OC)C(c2cccs2)C(C#N)=C(N)O1 (configuration not stated)	-1	0.0	2	-15	-19	-8
29	CC1CCN(S(=O)(=O)c2ccc3[nH]c(=O)cc(C(=O)O)c3c2)CC1	0	0.5	2	-7	5	8
30	NC(=Nc1nc(-c2ccccn2)cc2ccccc12)c1ccccn1	-13	0.0	6	-40	/	8

# 10 successive entries out of the list so far, quoted:
no.	mol	Six1-Eya2 blk	TRPML1 agonist	CtBP-E1A inh	D2 PAM	TRPV1 PAM	TRPML1 inh
21	COCCNC(=O)C(c1ccc(C)cc1)N(Cc1ccco1)C(=O)CCC(=O)Nc1ccccn1 (configuration not stated)	-3	-0.3	4	1	2	-12
22	COc1ccc(Cl)cc1S(=O)(=O)N1CCN(C)CC1	5	0.4	7	0	-1	-7
23	Cc1ccc2nc(SCC(=O)N3c4ccccc4CC3C)c(C)cc2c1 (configuration not stated)	13	2.1	8	-26	15	-22
24	CC(=O)Nc1cnn(Cc2ccc(Br)cc2)c1	5	-0.2	0	-13	6	-11
25	COc1ccccc1NC(=O)C(C)Nc1ccc(C)c(Cl)c1 (configuration not stated)	-15	2.7	-14	-4	8	30
26	Cc1ccc(S(=O)(=O)CCC(=O)OC(C)C(=O)c2c(C)[nH]c3ccccc23)cc1 (configuration not stated)	23	-0.2	0	-12	6	1
27	COC(=O)c1c(-c2ccc(SC)cc2)sc2ccc(OC)cc12	12	2.3	2	1	/	60
28	COC(=O)CC1=C(C(=O)OC)C(c2cccs2)C(C#N)=C(N)O1 (configuration not stated)	-1	0.0	2	-15	-19	-8
29	CC1CCN(S(=O)(=O)c2ccc3[nH]c(=O)cc(C(=O)O)c3c2)CC1	0	0.5	2	-7	5	8
30	NC(=Nc1nc(-c2ccccn2)cc2ccccc12)c1ccccn1	-13	0.0	6	-40	/	8

# (cont.)
no.	mol	Six1-Eya2 blk	TRPML1 agonist	CtBP-E1A inh	D2 PAM	TRPV1 PAM	TRPML1 inh
31	CS(=O)(=O)N(CC(=O)Nc1ccc(F)cc1F)C1CCCCC1	20	-0.4	3	0	-1	-6
32	COCCOC(=O)C1=C(C)NC(=O)NC1c1ccc(OC(=O)c2ccco2)c(OC)c1 (configuration not stated)	4	-0.3	5	22	9	-4
33	CCCC(=O)C1C(=O)CC(C)(C)C(c2cc(C)no2)C1=O (configuration not stated)	17	0.6	0	-5	18	-10
34	CCSc1ccccc1-c1nc(-c2ccncc2)no1	13	-0.6	/	-8	4	-3
35	COc1cc(OC)cc(C2=Cc3ccc(OC)cc3C(CC(C)=O)N2c2ccc(C#CC3(N)CCCCC3)cc2)c1 (configuration not stated)	11	-0.3	-19	/	/	/
36	N#Cc1cccc(NC(=O)CCN2C(=O)C3CCCCC3C2=O)c1 (configuration not stated)	2	-0.6	5	-20	/	6
37	O=C(Nc1ccc2c(c1)OCO2)C1CCCN1C(=O)Nc1ccccc1 (configuration not stated)	1	-0.8	16	23	-4	16
38	Cc1cc(=O)n(CCc2ccccc2)c(O)c1C#N	1	1.1	-1	10	8	-11
39	COCC(=O)N(c1ccccc1)C(C)C(=O)OC (configuration not stated)	7	0.0	/	-11	-16	-10
40	Cc1cccc(C(=O)N2CCCCCC2)c1[N+](=O)[O-]	2	0.1	/	-7	-12	-10
41	CC1CN(Cc2ccccc2)c2nc3c(c(=O)[nH]c(=O)n3C)n2C1 (configuration not stated)	-9	-0.6	12	-5	24	-8
42	COc1ccc2c(c1)CO[C@]21O[C@H](CCO)C[C@H](O)[C@H]1O	4	0.1	11	-1	/	/
43	O=C(Nc1ccc(Br)cc1)C1CC(O)CN1C(=O)OCc1ccccc1 (configuration not stated)	-3	0.4	9	-3	-1	-3
44	O=C(CCC(=O)OCCCC(F)(F)C(F)(F)F)Nc1ccc(Cl)cc1Cl	10	-0.4	18	11	4	-5
45	CC(=O)N1c2ccc(S(=O)(=O)NCCC(=O)NCc3ccc(N(C)C)cc3)cc2CC1C (configuration not stated)	2	0.2	-6	-11	8	22
46	CCOc1ccc(Nc2cc(=O)n(C)c(=O)n2C)cc1	6	0.9	5	-1	-2	-10
47	C=CCN1C(=O)C(O)(CC(=O)c2ccc(OC)cc2OC)c2cc(Br)ccc21 (configuration not stated)	-2	-0.6	4	-13	-7	16
48	CC(C)C1Oc2cc3oc(=O)ccc3cc2C1=O (configuration not stated)	-6	0.4	-1	-10	12	-13
49	O=c1c2ccccc2oc2ccc(-c3ccc4[nH]ccc4c3)cc12	12	-0.4	5	-15	/	7
50	CC(C)CCN1CCN(Cc2ccc(Sc3nncn3C)o2)CC1CCO (configuration not stated)	15	0.0	3	-7	-2	-6
51	CC1Cc2ccccc2N1S(=O)(=O)c1cccc(C(=O)OCC(=O)NCc2ccco2)c1 (configuration not stated)	1	3.1	1	-2	-8	35
52	CCOc1ccccc1CN1CCN(S(=O)(=O)CC)CC1	2	-0.2	2	-21	8	6
53	CCc1ccc(CN(C)CC(=O)Nc2ccccc2[N+](=O)[O-])cc1	-26	2.5	-25	-20	-4	-5
54	CSc1cccc(NC(=O)CSc2ccc(C)cc2)c1	3	4.3	5	-4	-14	-13
55	COc1cccc(NC(=S)N2CCCN(Cc3ccc(F)cc3)C2)c1	-10	0.3	?	-16	13	?
56	CCn1nc(C)c(CNC(=O)CCc2nnc(-c3ccc(C(C)=O)s3)o2)c1C	6	0.0	11	0	1	14
57	COc1ccccc1OCCn1c(=O)oc2ccc(C)cc21	12	2.9	-17	-3	13	17
58	CC1CN(C(=O)/C(=C/c2ccco2)NC(=O)c2ccccc2)CC(C)O1 (configuration not stated)	-8	0.8	0	1	-2	16
59	Cc1[nH]n(-c2ccccc2)c(=O)c1C(=O)c1ccc([N+](=O)[O-])cc1	-1	0.1	5	-14	10	-18
60	CC1CCCCN1S(=O)(=O)c1ccc(S(=O)(=O)N2CCCC2)cc1 (configuration not stated)	9	1.0	5	-5	-6	12
61	Cn1c(CO)cnc1SCc1ccc(Cl)cc1	-3	-1.0	0	10	-13	-5
